Beta2AR agonist = beta2AR agonists driving receptor internalization, primary screen, cell-based, FAP fluorogen, flow cytometry | Am2.2-beta2AR cells; reference of the scale not given here | response, % (test concentration not listed) | AID 504454, 2011 | 0.43% of 340,000 active | Beta-2 adrenergic receptor (Homo sapiens), P07550;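 active = response above a set limit, near 3 SD of response in nonfluorescent compounds, cut at about 42% in these data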;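 note: stock transfer was 100 nL into about 11 µL; a reference agonist was the positive control; negative values mostly stem from fluorescent compounds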
rRNA inh HTS = reduced GFP signal of wild-type E. coli, primary screen, bacterial rRNA inhibitor project, GFP/RFP fluorescence, OD600, single point. E. coli WT GFP vs humanized-ribosome RFP mutants, 24 h; stronger effect = lower value; DMSO median 0, no signal -100. GFP signal change (wild-type ribosome), % (test concentration not listed). 1.6% of 350,000 active. AID 720706, 2013;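 active = significant combined selectivity score with lowered wild-type GFP, culture density cut under 30%, mutant RFP and density less affected; inactive = any of these conditions unmet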; note: one replicate is shown; some compounds called inactive have numbers as strong as hits
ALR inh = inhibitors of human ALR sulfhydryl oxidase, primary screen, biochemical, H2O2 detection, HRP-luminol luminescence, single point | inhibition, % (concentration not given with the values) | 3.8% of 290,000 active | purified ALR, DTT oxidation | FAD-linked sulfhydryl oxidase ALR (Homo sapiens), P55789 | AID 485317, 2010;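 active = mean and each replicate at 75% or more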;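 note: stock transfer was 7.5 nL into about 7.5 µL; 0% = neutral wells and 100% = wells with inactivated enzyme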
Beta cell apopt = inhibitors of cytokine-induced beta cell apoptosis, primary screen, luminescence | INS-1E cytokine-induced death, ATP luminescence, 48 h; percent of positive-control rescue, neutral wells zero | 0.8% of 300,000 active | protection from apoptosis, % (concentration not given with the values);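 active = all replicates at 75% or more, or half of them and the mean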;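 note: 0% = cytokine-treated negative control wells and 100% = positive control rescue; higher means more ATP so stronger rescue from cytokine killing; wells of about 40 µL received 100 nL stock; the first replicate is given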
A1 inh = caspase 3/7 activation in MEF A1-2A-BIM cells, primary screen, A1 inhibitor project, cell-based, luminescence, HTS; Caspase-Glo 3/7 luminescence, 3 h; percent of clofoctol response, vehicle zero; caspase activation, % (test concentration not listed); 0.066% of 330,000 active;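 active = over half of replicate activation scores above 10%, or exactly half above 10 with the replicate mean above 10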;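 note: wells of about 30 µL received 50 nL stock; many hits fall short of the cut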
T cruzi repl = inhibitors of intracellular T. cruzi growth, primary screen, luminescence, NIH3T3 host cells | T. cruzi beta-gal in NIH3T3, 90 h | 1.4% of 300,000 active | inhibition, % (test concentration not listed);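 active = mean inhibition across valid replicates above about 55%, limit read from the data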;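 note: signal also drops with host cell toxicity which is not excluded here; 0% = plate median of DMSO wells and 100% = zero luminescence signal; higher percent means less beta-gal luminescence so fewer parasites; stock transfer was 50 nL into about 50 µL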
LANA-H2B inh = blockers of LANA interaction with H2A/H2B – biochemical, FP readout, HTS, primary screen; cell-free LANA-H2A/H2B peptide, fluorescence polarization; Protein LANA1 (Human herpesvirus 8 type P (isolate GK18)), Q9QR71; 0.6% of 320,000 active; inhibition, % (no concentration beside the values); in the data active = inhibition mostly above about 10%, no sharp cut-off; inactive = mostly below about 6.7%;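 note: stock transfer was 7.5 nL into about 10 µL; 0% = median of vehicle wells and 100% = median of positive control wells; one replicate is shown; the record names a cut of 25% in any replicate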
Target sequence (Q9QR71 whole entry, looked up): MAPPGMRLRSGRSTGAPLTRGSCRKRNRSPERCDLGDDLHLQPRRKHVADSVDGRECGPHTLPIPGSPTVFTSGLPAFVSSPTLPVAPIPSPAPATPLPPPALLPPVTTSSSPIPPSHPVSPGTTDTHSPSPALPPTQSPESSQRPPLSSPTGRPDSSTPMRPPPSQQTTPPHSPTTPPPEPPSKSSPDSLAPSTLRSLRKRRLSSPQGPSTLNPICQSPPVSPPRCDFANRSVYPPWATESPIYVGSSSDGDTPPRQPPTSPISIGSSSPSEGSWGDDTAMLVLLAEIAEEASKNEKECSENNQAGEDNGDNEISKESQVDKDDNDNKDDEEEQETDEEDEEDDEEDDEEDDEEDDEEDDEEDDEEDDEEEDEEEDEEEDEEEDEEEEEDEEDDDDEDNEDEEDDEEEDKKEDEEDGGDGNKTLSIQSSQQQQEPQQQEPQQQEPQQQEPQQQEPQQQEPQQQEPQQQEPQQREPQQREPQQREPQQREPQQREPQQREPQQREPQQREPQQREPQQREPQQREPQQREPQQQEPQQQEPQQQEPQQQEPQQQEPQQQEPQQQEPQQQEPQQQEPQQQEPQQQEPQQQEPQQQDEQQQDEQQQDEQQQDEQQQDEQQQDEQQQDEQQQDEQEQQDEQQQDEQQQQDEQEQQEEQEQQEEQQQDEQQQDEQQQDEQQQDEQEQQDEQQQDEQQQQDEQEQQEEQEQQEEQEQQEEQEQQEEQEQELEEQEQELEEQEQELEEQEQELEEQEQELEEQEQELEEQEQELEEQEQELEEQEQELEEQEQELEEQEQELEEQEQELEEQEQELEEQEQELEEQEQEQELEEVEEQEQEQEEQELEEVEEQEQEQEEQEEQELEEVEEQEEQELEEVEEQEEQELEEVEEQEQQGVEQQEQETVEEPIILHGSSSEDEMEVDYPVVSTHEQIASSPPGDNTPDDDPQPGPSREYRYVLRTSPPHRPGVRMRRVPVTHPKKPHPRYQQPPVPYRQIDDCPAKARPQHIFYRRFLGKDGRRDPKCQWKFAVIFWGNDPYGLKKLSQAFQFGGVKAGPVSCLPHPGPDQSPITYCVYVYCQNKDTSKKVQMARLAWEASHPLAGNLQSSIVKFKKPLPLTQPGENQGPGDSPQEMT
Calb FLC = C. albicans growth inhibition with fluconazole, primary screen, CaCi-2 strain, Alamar Blue fluorescence | C. albicans CaCi-2 (fluconazole-resistant clinical isolate) + fluconazole, 48 h | 0.57% of 300,000 active | growth inhibition, % (test concentration not listed);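 active = most replicates above 75%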;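 note: all wells also contain fluconazole at 8 µg/ml as a sub-toxic cotreatment; 0% = median of DMSO wells and 100% = median of geldanamycin control wells; wells of about 8 µL received 7.5 nL stock; the first replicate is given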
rRNA inh HTS OD600 = further read-out of rRNA inh HTS, marked with its call; OD600 change, %; measured here: OD600 growth;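 optical density of the mix in the first replicate; 0 = DMSO median and -100 = no signal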
rRNA inh HTS RFP = further read-out of rRNA inh HTS, marked with its call; RFP signal change, %; measured here: RFP humanized mutant strains;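 first replicate; 0 = DMSO median and -100 = no signal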
Numbers without * were called inactive; · = no result given.

#	SMILES	A1 inh	Calb FLC	Beta2AR agonist	rRNA inh HTS OD600	LANA-H2B inh
1	CCC(C)N(C(=O)C(F)(F)F)C(C(=O)NC1CCCCC1)c1ccncc1 (configuration not stated)	1.3	5	0	·	1.9
2	O=C(C[C@H]1C/C=C\C[C@@H](Cc2ccc(F)cc2)C(=O)O[C@@H](c2ccccc2)CNC1=O)N[C@@H](CO)Cc1ccccc1	0.3	·	3	7	-7.1
3	CN(C)CCCN(C(=O)c1ccc(S(=O)(=O)N2CCCc3ccccc32)cc1)c1nc2ccc(F)cc2s1	0.4	-4	19	-79	-4.3
4	Cc1cc(C)n2nc(C(=O)NCc3ccccc3)nc2n1	-0.2	2	0	·	4.6
5	CCOC(=O)C1=C(NC#N)OC(C)=C(C)C1c1ccc(O)cc1 (configuration not stated)	0.8	-2	5	·	-2.6
6	COc1ccc(C)cc1N(C(=O)c1snc(C(N)=O)c1N)C(C(=O)NC1CCCC1)c1ccc(F)cc1 (configuration not stated)	-0.1	38	-1	11	-2.8
7	Cc1ccc(N(C(=O)Cn2nnc(-c3ccc(C)o3)n2)C(C(=O)NC2CCCC2)c2ccco2)cc1 (configuration not stated)	0.3	-3	5	·	4.7
8	C=C(C)C(=O)Nc1cccc(C2=NOC3(C2)C[C@@H](C(N)=O)N(C(=O)/C=C/CC)C3)c1 (some centres not stated)	1.0	-18	0	10	0.2
9	CC1=NC(C)Cc2ccccc21 (configuration not stated)	-0.2	-1	0	·	3.7
10	O=S(=O)(NCc1ccccc1)c1ccccc1Br	0.7	4	3	-18	8.5
11	[N-]=[N+]=CC(=O)CNC(=O)[C@@H](Cc1ccccc1)N1C(=O)c2ccccc2C1=O	0.0	0	4	·	7.8
12	C/C=C/c1cc(CN2CCN(c3ccc(OC)cc3)CC2)c(O)c(OC)c1	0.5	9	0	-18	-0.1

#	T cruzi repl	rRNA inh HTS RFP	Beta cell apopt	rRNA inh HTS	ALR inh
1	-10	·	1	·	·
2	·	0.6	-3	6	1
3	23	-18	-12	-56	-6
4	12	·	-6	·	-1
5	-4	·	-1	·	9
6	10	8.9	-2	10	·
7	16	·	8	·	-5
8	-5	2.2	1	3	·
9	-12	·	0	·	-5
10	-13	-6.3	-3	-12	-2
11	2	·	-5	·	4
12	13	-0.7	4	-22	9

(further entries)
#	SMILES	A1 inh	Calb FLC	Beta2AR agonist	rRNA inh HTS OD600	LANA-H2B inh
13	COC(=O)[C@H]1C[C@@H]1[C@H](NC(=O)c1cccnc1)c1ccccc1	0.5	-11	-3	4	2.8
14	O=C(NCCC1=CCCCC1)C1CCC(=O)N(Cc2cccc(C(F)(F)F)c2)C1 (configuration not stated)	-0.8	-5	-6	-33	-1.3
15	CC(=O)NC(C)c1ccc(C(=O)CSc2nnc(C3CC3)n2C2CC2)cc1 (configuration not stated)	0.1	·	0	-17	-2.0
16	Cc1cccc(C(=O)NC(C)c2ccc(-n3ccnc3)cc2)c1C (configuration not stated)	1.1	1	2	8	-1.1
17	Cc1n[nH]c(=O)c2c(NC(=O)CSc3nc4ccccc4c(=O)n3-c3ccc(OC(F)F)cc3)oc(C)c12	0.0	·	4	1	-2.8
18	COC(=O)c1c(C(=O)OC)c(-c2ccc(Br)cc2)n2c1CS(=O)C2 (configuration not stated)	0.5	-2	-6	-2	3.3
19	Nc1nnc(SCC(=O)Nc2cc(F)ccc2F)s1	-0.1	-18	-4	-2	1.2
20	N#CC(c1ccc(Cl)cc1)c1nc2ccccc2nc1C(F)(F)F (configuration not stated)	0.0	14	-7	·	-0.9
21	Cc1ccc(N2C(=O)N(CC(=O)Nc3cccc(C)c3C)C(=O)C2C)cc1 (configuration not stated)	0.2	5	-6	2	·
22	CC(OC(=O)CCc1ccccc1)C(=O)Nc1ncc(Cl)cc1Cl (configuration not stated)	2.1	-19	-8	8	-4.8
23	CC(=O)c1ccc(NS(=O)(=O)c2ccc(CC(C)C)cc2)cc1	-1.3	24	-3	·	7.5
24	Clc1ccc(-c2ccccc2)nn1	1.9	7	2	0	-3.9

#	T cruzi repl	rRNA inh HTS RFP	Beta cell apopt	rRNA inh HTS	ALR inh
13	-3	2.3	-7	3	-12
14	-4	-8.1	-5	-7	0
15	·	3.8	-1	-4	61
16	-7	4.1	4	3	-4
17	5	-1.2	2	0	-6
18	2	-0.1	-2	-1	·
19	-4	-2.3	·	-3	-17
20	8	·	·	·	·
21	-3	-1.7	1	0	·
22	-18	1.0	-5	6	-18
23	-26	·	12	·	-3
24	-3	-4.2	2	0	6

(further entries)
#	SMILES	A1 inh	Calb FLC	Beta2AR agonist	rRNA inh HTS OD600	LANA-H2B inh
25	Cc1ccccc1NC(=O)C1CC(=O)N(Cc2ccccc2)C1 (configuration not stated)	-0.1	-2	-1	3	-1.4
26	CCOC(=O)c1cc2c(=O)n3ccccc3nc2n(Cc2ccco2)c1=NC(=O)c1ccc(OC)cc1	0.0	-2	8	5	-1.7
27	Cc1cc(C)c(S(=O)(=O)N2CCN(S(=O)(=O)N3CCCCCC3)CC2)c(C)c1	0.2	-4	7	9	8.2
28	O=C(NO)C1CC2C=CC1C2 (configuration not stated)	0.4	-11	6	·	-0.8
29	CN(C)S(=O)(=O)c1ccc(C(=O)OCC(=O)NCc2ccco2)cc1	0.8	-2	-7	15	3.3
30	CCc1nnc(NC(=O)C2CCCCN2S(=O)(=O)c2ccccc2)s1 (configuration not stated)	0.2	14	7	-8	-5.7
31	COc1cccc(NC(=O)CSc2nnc3ccc(-c4ccccn4)nn23)c1	·	6	9	9	·
32	O=C(CSc1oc(-c2ccco2)nc1S(=O)(=O)c1ccc(Cl)cc1)NCC1CCCO1 (configuration not stated)	0.5	-27	-5	·	8.1
33	COc1ccc(C2(c3ccc(OC)cc3)NC(=O)N(CC(=O)Nc3ccccc3)C2=O)cc1	0.1	8	-8	-10	1.9
34	CCC(=O)N1CCN(C(C)=O)C1c1ccccc1 (configuration not stated)	-0.1	-1	-1	·	-3.4
35	CC1CCCC(NC(=O)CN(C)CC(=O)Nc2ccc(F)cc2)C1C (configuration not stated)	0.3	·	-7	-14	-435
36	CCOC(=O)C1=C(N)N(c2cc(S(=O)(=O)N3CCOCC3)ccc2Cl)C(=O)C1	0.0	-24	-4	10	2.3

#	T cruzi repl	rRNA inh HTS RFP	Beta cell apopt	rRNA inh HTS	ALR inh
25	-13	2.2	-4	18	0
26	31	-2.1	4	-1	24
27	35	-1.2	12	6	4
28	1	·	-1	·	-1
29	5	0.8	0	6	-6
30	-2	0.7	0	-5	2
31	-10	-0.4	·	8	·
32	-1	·	-7	·	-21
33	2	3.0	-4	-3	·
34	-13	·	-3	·	6
35	·	-2.2	-3	-1	1
36	-7	2.2	-2	14	6

New compounds follow:
#	SMILES	A1 inh	Calb FLC	Beta2AR agonist	rRNA inh HTS OD600	LANA-H2B inh
37	COc1cccc(C(C(=O)NC2CCCC2)N(C(=O)c2ccco2)c2ccccc2F)c1OC (configuration not stated)	-0.1	5	5	-15	-0.1
38	CCOc1ncccc1C(=O)NCc1ccc(OC)cc1	·	0	-2	·	4.0
39	CCC(C)N(C(=O)c1csnn1)C(C(=O)NCc1ccc(F)cc1)c1ccco1 (configuration not stated)	-0.7	-12	-4	·	0.1
40	O=c1c2ccccc2nc2c3ccccc3c(NCc3ccco3)nn12	-0.7	-1	-2	·	0.9
41	COCCOC(=O)C1=C(N)OC2=C(C(=O)CC(C)(C)C2)C1c1cccnc1 (configuration not stated)	1.1	1	-29	·	-2.7
42	CCOC(=O)c1c(C)n(C)c2ccc(OCC(O)CN3CCN(C)CC3)cc12 (configuration not stated)	-0.2	1	-9	12	1.9
43	COCCN(CC(=O)Nc1cccc(C)c1C)C(=O)c1cc2c(s1)CCC2	1.7	·	-12	-2	0.5
44	CN(C)C(=O)c1cccn(Cc2cccc(C(F)(F)F)c2)c1=O	0.3	-1	-3	4	1.8
45	O=C1CCCN1CCCNS(=O)(=O)c1ccc(Br)s1	0.2	·	-2	11	3.7
46	COc1ccccc1NC(=S)NCc1ccco1	-1.4	-2	-1	·	5.0

#	T cruzi repl	rRNA inh HTS RFP	Beta cell apopt	rRNA inh HTS	ALR inh
37	4	-0.4	-4	-1	·
38	-13	·	-7	·	10
39	-8	·	-1	·	-17
40	17	·	-5	·	91*
41	-1	·	-5	·	·
42	26	-2.6	-3	0	-166
43	·	3.2	-2	6	·
44	-8	-1.5	2	7	8
45	-9	0.0	3	15	-5
46	-6	·	·	·	-15

Structures listed so far that contain an aryl thioether with sulfur outside any ring, in the order listed:
#	SMILES	A1 inh	Calb FLC	Beta2AR agonist	rRNA inh HTS OD600	LANA-H2B inh
15	CC(=O)NC(C)c1ccc(C(=O)CSc2nnc(C3CC3)n2C2CC2)cc1 (configuration not stated)	0.1	·	0	-17	-2.0
17	Cc1n[nH]c(=O)c2c(NC(=O)CSc3nc4ccccc4c(=O)n3-c3ccc(OC(F)F)cc3)oc(C)c12	0.0	·	4	1	-2.8
19	Nc1nnc(SCC(=O)Nc2cc(F)ccc2F)s1	-0.1	-18	-4	-2	1.2
31	COc1cccc(NC(=O)CSc2nnc3ccc(-c4ccccn4)nn23)c1	·	6	9	9	·
32	O=C(CSc1oc(-c2ccco2)nc1S(=O)(=O)c1ccc(Cl)cc1)NCC1CCCO1 (configuration not stated)	0.5	-27	-5	·	8.1

#	T cruzi repl	rRNA inh HTS RFP	Beta cell apopt	rRNA inh HTS	ALR inh
15	·	3.8	-1	-4	61
17	5	-1.2	2	0	-6
19	-4	-2.3	·	-3	-17
31	-10	-0.4	·	8	·
32	-1	·	-7	·	-21

Screens (PubChem BioAssay)

A portion of the library; count on the stated rates, not on these rows.
